UCH37 DUB inh – inhibitors of human deubiquitinating enzyme UCH37 | Q9Y5K5 | purified proteasome/UCH37, Ub-AMC cleavage fluorescence | inhibition, % (concentration not given with the values) | 0.33% of 330,000 active | AID 588478;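 active = mean of two replicates above 20%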;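 also: 0% = compound-free wells with enzyme and 100% = wells lacking proteasome; stock transfer was 100 nL into about 20 µL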
Target sequence (Q9Y5K5 whole entry, looked up): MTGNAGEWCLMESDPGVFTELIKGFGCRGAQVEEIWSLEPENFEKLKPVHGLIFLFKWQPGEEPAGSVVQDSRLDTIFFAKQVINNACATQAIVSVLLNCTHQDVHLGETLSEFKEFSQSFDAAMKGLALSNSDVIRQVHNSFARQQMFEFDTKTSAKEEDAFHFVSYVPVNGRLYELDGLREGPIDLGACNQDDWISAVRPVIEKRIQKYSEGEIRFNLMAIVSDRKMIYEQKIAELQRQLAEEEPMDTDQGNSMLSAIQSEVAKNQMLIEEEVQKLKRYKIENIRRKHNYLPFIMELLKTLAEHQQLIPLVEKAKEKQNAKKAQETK
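Assay system: Proteasome-bound UCH37. Buffer or medium: pH 7.4 Tris-HCl (50 mM) with ovalbumin, ATP-MgCl2, DTT. Incubation: 30 min preincubation with enzyme, 25 min cleavage at room temperature. Measured by: fluorescence, ex 355 nm, em 460 nm. Read-out basis: percent inhibition. Control set: wells without proteasome as full block, compound-free enzyme plus substrate as uninhibited.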
HNF4A DNA FP – change in binding of human HNF4 alpha to DNA; 0.3% of 360,000 active; P41235; AID 1224865; HNF4a-FITC DNA binding, fluorescence polarization, 1 h; activity change, % at 10 µM; in the data active = activity change above about 30%, passing the limit was not always enough;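 also: controls were the assay level and a saturating level of protein; the project sought stronger binding though the title names inhibitors; some compounds called inactive have numbers as strong as hits; positive values seem to mean higher polarization but the record does not say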
A1 inh – inhibitors of the anti-apoptotic protein A1, read as caspase activation | MEF A1-2A-BIM cells, Caspase-Glo 3/7 luminescence, 3 h; percent of clofoctol response, vehicle zero | caspase activation, % (concentration not given with the values) | 0.066% of 330,000 active | AID 2462;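 active = over half of replicate activation scores above 10%, or exactly half above 10 with the replicate mean above 10; inconclusive = replicate mean below 10 yet half the replicates above 10; inactive = over half of replicates below 10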;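 also: wells of about 30 µL received 50 nL stock; many hits fall short of the cut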
LANA-H2A inh – blocks KSHV LANA binding to histone H2A/H2B; cell-free LANA-H2A/H2B peptide, fluorescence polarization; inhibition, % (no concentration beside the values); Q9QR71; 0.6% of 320,000 active; in the data active = inhibition mostly above about 10%, no sharp cut-off; inactive = mostly below about 6.7%;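 also: stock transfer was 7.5 nL into about 10 µL; 0% = median of vehicle wells and 100% = median of positive control wells; one replicate is shown; the record names a cut of 25% in any replicate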
Ecoli growth – blocks Escherichia coli growth. AID 1053175. OD600 absorbance (test concentration not listed). OD600, 23 h; active compounds read low. 0.21% of 330,000 active;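 active = OD600 absorbance below the run mean of sample wells minus 3.6 SD, in any replicate, cut at about 0.56 in these data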;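 also: stock transfer was 300 nL into about 60 µL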
Vif TR-FRET – inhibitors of Vif binding to APOBEC3G peptide, primary screen, biochemical, TR-FRET, GST-Vif 1-94, biotin-A3G peptide, dose response retest (AID 1117319); TR-FRET GST-Vif / biotin-A3G peptide binding; higher % means a stronger effect; test concentration not given here; strong numbers were not always called active; inhibition, %, or IC50 in µM where a hit was titrated; 0.57% of 260,000 active;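 active = above the screen mean plus three standard deviations and confirmed in dose response; inconclusive = results disagree or hit not tested in dose response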;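 also: Vif residues 1-94 fused to GST binding biotinylated APOBEC3G peptide 110-148; 0% = full assay without inhibitor and 100% = GST in place of GST-Vif; retest series ran down from 100 µM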
Beta2AR agonist – human beta-2 adrenergic receptor agonism by FAP; P07550; Am2.2-beta2AR cells, FAP receptor internalization, flow cytometry; reference of the scale not given here; response, % (no concentration beside the values); 0.43% of 340,000 active;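 active = response above a set limit, near 3 SD of response in nonfluorescent compounds, cut at about 42% in these data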;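 also: stock transfer was 100 nL into about 11 µL; a reference agonist was the positive control; negative values mostly stem from fluorescent compounds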
Target sequence (P07550 whole entry, looked up): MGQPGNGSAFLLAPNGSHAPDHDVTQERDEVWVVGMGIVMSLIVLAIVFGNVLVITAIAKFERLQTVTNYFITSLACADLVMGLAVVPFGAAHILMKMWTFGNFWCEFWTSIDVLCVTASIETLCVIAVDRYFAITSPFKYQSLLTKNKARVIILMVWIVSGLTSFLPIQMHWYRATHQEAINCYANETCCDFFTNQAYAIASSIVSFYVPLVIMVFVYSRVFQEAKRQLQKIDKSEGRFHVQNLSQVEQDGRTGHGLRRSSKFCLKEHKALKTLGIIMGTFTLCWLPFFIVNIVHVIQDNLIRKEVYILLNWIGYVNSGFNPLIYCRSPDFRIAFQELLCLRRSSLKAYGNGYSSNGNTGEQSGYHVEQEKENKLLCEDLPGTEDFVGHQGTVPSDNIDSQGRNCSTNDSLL
Numbers without * were called inactive; u = inconclusive; x = no result given.

Compound	UCH37 DUB inh	HNF4A DNA FP	A1 inh	LANA-H2A inh	Ecoli growth	Vif TR-FRET	Beta2AR agonist
COc1ccc(C(=O)Nc2cccnc2Sc2ccc(Cl)cc2)cc1	2.4	-0.8	0.3	-2.7	0.7	5%	-7
CSCC[C@H](NC(=O)N1CCn2c1nc1ccccc12)C(=O)NCc1ccc(F)cc1	3.0	1.1	0.8	-5.1	0.7	x	-13
CC(C)n1nnnc1SCC(=O)NCCc1ccccc1	-0.3	0.9	0.8	0.2	0.7	-6%	8
Cc1c(N)c(=O)n(-c2ccccc2)n1C	1.4	-4.9	-0.2	3.1	0.64	x	-7
CC[N+](CC)(CC)CCOc1ccc(/C=C/c2ccccc2)cc1	3.9	-0.6	0.6	-2.0	x	x	-5
CN(C(=O)c1ccccc1)c1nccnc1C#N	-0.1	1.0	0.0	0.9	0.57	6%	-3
Cc1ccccc1-n1nnnc1SCc1cc(=O)n2ccsc2n1	1.1	-0.2	-0.3	-0.5	0.71	-7%	-2
CN(C)c1ccc(C2(c3ccc(N(C)C)cc3)OC(=O)c3cc(N)ccc32)cc1	0.2	-3.5	-0.4	0.2	0.76	4%	7
O=C(CN1CCN(S(=O)(=O)c2ccc(F)c(Cl)c2)CC1)N1CCc2ccccc2C1	4.0	-0.4	x	x	0.62	x	6
CCC(c1nnnn1C(C)C)N1CCN(C2CCCC2)CC1 (stereo not drawn)	5.3	1.1	-0.2	3.2	0.76	13%	-14
CCOC(=O)/C(=N/Nc1ccccc1OC)N1CCCc2ccccc21	x	0.6	-0.1	-6.8	x	6%	2
Cc1ccc(C)c2[nH]c(=O)c(CCNS(=O)(=O)c3ccccc3)cc12	-2.4	-1.0	0.5	-3.6	0.73	1%	14
C[C@H](CO)N1C[C@H](C)[C@@H](CN(C)Cc2ccc(C(=O)Nc3ccccc3N)cc2)Oc2c(NC(=O)C3CCCCC3)cccc2C1=O	1.7	4.2	-0.1	-1.8	x	x	-5
O=C(CSc1ccccn1)Nc1ccc2c(c1)OCCO2	2.4	-2.9	-0.4	4.0	0.69	-5%	-3
COCCNC(=O)c1oc2ccc3c(c2c1C)C(O)CC(C)(C)O3 (stereo not drawn)	-44	3.5	0.6	1.2	0.71	-4%	5

Taken from above:
Result for `CCOC(=O)/C(=N/Nc1ccccc1OC)N1CCCc2ccccc21` in Vif TR-FRET: 6%
Result for `Cc1ccccc1-n1nnnc1SCc1cc(=O)n2ccsc2n1` in Ecoli growth: 0.71

Additional compounds
Compound	UCH37 DUB inh	HNF4A DNA FP	A1 inh	LANA-H2A inh	Ecoli growth	Vif TR-FRET	Beta2AR agonist
CC(C(=O)O)N1C(=O)CSC1=S (stereo not drawn)	2.4	88*	-0.2	1.2	0.72	-4%	6
CSc1n[nH]c(=O)n1C1CCCCC1	-1.0	4.7	2.1	-4.3	0.69	-4%	-6
Cc1ccc(Cn2nc(C)c(NC(=O)CCCn3nc([N+](=O)[O-])c(Cl)c3C)c2C)cc1	4.3	-1.9	-0.3	0.1	0.7	7%	-5
CCCS(=O)(=O)N1CCC(C(=O)NCCN2CCCC2)CC1	1.9	-0.3	0.3	-2.1	0.71	-1%	10
CSc1ccccc1C(=O)Nc1ccc(S(=O)(=O)NC2=NCCCCC2)cc1	0.8	-1.6	-0.1	x	0.68	-3%	-6
CC(=O)NC1C(Oc2ccc(C=O)cc2)OC(COC(C)=O)C(OC(C)=O)C1OC(C)=O (stereo not drawn)	0.9	2.1	-0.1	3.1	0.66	x	-4
NS(=O)(=O)c1ccc(NC(=O)CSc2nnc(NC3CC3)s2)cc1	0.9	-2.8	x	x	0.7	26%	-1
Cc1ccc(/C=N/NC(=O)c2cc(C3CC3)nc3ccccc23)o1	x	1.0	-0.2	-5.9	x	-6%	9
CCCCC(=O)Nc1cc(OC)c(NC(=S)Nc2ccc(OC)cc2)cc1OC	1.3	-3.6	x	x	0.64	x	-1
CNc1sc(C(=O)c2ccc(F)cc2)c(N)c1-c1nc2ccccc2s1	4.0	0.4	0.0	0.2	0.71	13%	15
CC(=O)c1cnc2nc(SCc3ccccc3)nn2c1C	1.7	-2.9	1.6	-3.2	0.73	7%	-1
Cc1ccc(-c2nn(-c3ccccc3)cc2C(=O)NCCCN2CCOCC2)cc1	3.5	-2.7	0.6	-2.8	0.71	x	-10
COc1cccc(-c2cc3c(=O)n(-c4ccccc4)c(=S)[nH]c3s2)c1	6.6	-0.4	-0.1	-3.1	0.72	-17%	-2
COCCN=C1Sc2nc3c(C)cccc3cc2CN1Cc1ccco1	0.9	-0.9	1.0	11	0.72	2%	-7
CCn1c(=O)c([N+](=O)[O-])c(N2CCOCC2)c2ccccc21	5.4	2.2	-1.7	2.7	0.68	-9%	-5

Following part
Compound	UCH37 DUB inh	HNF4A DNA FP	A1 inh	LANA-H2A inh	Ecoli growth	Vif TR-FRET	Beta2AR agonist
Cc1cc2c(cc1S(=O)(=O)NCc1ccc(Cl)cc1)OCC(=O)N2	4.2	-1.9	0.4	0.6	0.79	x	-5
CNS(=O)(=O)c1ccc(C(=O)NCC(=O)NC(C)c2cccs2)cc1 (stereo not drawn)	2.4	2.5	0.4	-5.2	0.72	4%	0
Cc1ccnc(NC(=O)CNC(=O)C23CC4CC(CC(C4)C2)C3)c1	2.4	3.7	0.0	2.6	0.64	4%	-4
CC1=C([N+](=O)[O-])C(c2ccc(Cl)cc2)NC(=O)N1C (stereo not drawn)	x	-1.4	1.6	0.6	x	7%	-4
COCCC(=O)N1CCC(Oc2ccc(C(=O)NC3CCCCC3)cc2)CC1	5.2	3.4	0.9	1.0	0.67	x	-7
O=C(C1CCCCCC1)N1CC[C@@H](N2CCC(O)CC2)[C@H](O)C1	0.5	-0.8	-0.4	2.8	0.63	x	3
COc1ccc(CCNC(=O)CN(c2ccccc2)S(C)(=O)=O)cc1	4.5	-0.9	-0.1	3.4	0.67	10%	0
Cc1ccc(S(=O)(=O)N(Cc2cc3ccccc3[nH]c2=O)c2cccc(C)c2)cc1	0.6	2.0	0.0	3.7	0.67	-72%	-15
Cc1ccc(S(=O)(=O)N2CCN(c3ncnc4c3cnn4-c3ccccc3)CC2)cc1	18	-0.3	-0.6	-11	0.7	0%	5
COc1ccccc1Oc1nc(C)c(C(C)=O)cc1C#N	3.9	2.9	-0.3	4.0	0.67	9%	0
c1ccc(Oc2nc(-c3ccccn3)nc3ccccc23)cc1	3.2	6.0	-5.0	1.6	0.59	-2%	-10
O=C(c1ccco1)N1CCN(C(=O)c2cccc3c2C(=O)N(C2CCCCC2)C3)CC1	-1.8	-0.2	0.4	-0.2	0.72	15%	-4
CCOc1ccc(NC(=O)C2CCN(S(=O)(=O)c3c(C)noc3C)CC2)cc1	1.1	-3.7	-0.3	2.3	0.7	-1%	-7
COc1ccc2c(C(=O)NCc3ccc4c(c3)OCO4)c(-c3ccc(S(C)(=O)=O)cc3)sc2c1	-77	3.6	-0.1	-1.5	0.71	x	16
CCN(CC)C(=O)N1CCN(c2c([N+](=O)[O-])c(=O)oc3ccccc23)CC1	7.9	-1.4	0.1	x	0.7	-5%	-9

Next records:
Compound	UCH37 DUB inh	HNF4A DNA FP	A1 inh	LANA-H2A inh	Ecoli growth	Vif TR-FRET	Beta2AR agonist
Cn1nnnc1SCC(=O)NNC(=O)c1ccc(Cl)cc1	0.3	-0.7	u	-7.2	0.72	-12%	-7
COc1cc(/C=C2\CCC/C(=C\c3ccc(O)c(OC)c3)C2=O)ccc1O	9.7	-3.0	0.9	-1.0	0.65	3%	43*
Cc1cccc(C)c1NS(=O)(=O)c1ccc(NC(=O)c2ccc(Cl)c([N+](=O)[O-])c2)cc1	5.7	-1.8	0.3	-15	0.7	17%	8
Cc1cccc2cc(C#N)c(NCCNC(=O)COc3ccccc3)nc12	-71	1.3	0.4	3.9	0.72	-10%	-1
CCOC(=O)/C=C1/SCC(=O)N1CC(=O)Nc1cccc(F)c1	1.6	5.5	-0.3	x	0.62	-5%	17
CCOc1ccc(S(=O)(=O)NCCC(=O)Nc2cccc(C(=O)OC)c2)cc1	-0.7	-0.2	1.0	0.9	0.62	x	3
COc1ccc(NC(=O)CN(C)C(=O)c2cc(C)on2)cc1	-0.8	-0.2	-0.3	-0.7	0.63	x	2
CC(C)(C)NC(=O)NCc1ccco1	1.4	-0.1	0.5	-4.1	0.65	4%	-3
O=C(c1ccccc1)[C@H]1[C@H](c2ccccc2)[C@@]2(N=C(c3ccccc3)OC2=O)C2c3ccccc3C=NN21 (stereo partly drawn)	x	x	-0.4	-0.3	x	-2%	x
COc1ccc(CNC(=O)C(OC(=O)c2ccco2)c2ccccc2)cc1 (stereo not drawn)	3.5	-1.1	0.1	-2.0	0.7	-18%	5
O=C(c1ccc(CS(=O)(=O)c2ccc(Br)cc2)o1)N1CCCC1	7.1	2.5	0.3	-1.4	0.74	4%	-1
COc1ccc(CN2CCN(C(=O)C3CCC(CNS(=O)(=O)c4ccc(C)cc4)CC3)CC2)c(OC)c1OC (stereo not drawn)	1.3	2.7	0.8	-6.3	0.69	-4%	23
CC(C)Oc1ccc(C(CC(=O)O)n2cnnn2)cc1 (stereo not drawn)	2.1	-1.4	0.3	-1.2	0.71	-4%	2
CC(C)(C)C(=O)Nc1ccc(-c2cnco2)cc1	3.8	3.8	-0.4	-0.4	0.7	-9%	-4
COc1cc(NC(=O)CSc2c3c(nc4ccccc24)CCC3)cc(OC)c1OC	6.1	-1.2	-0.2	2.5	0.64	16%	-8

The results go on:
Compound	UCH37 DUB inh	HNF4A DNA FP	A1 inh	LANA-H2A inh	Ecoli growth	Vif TR-FRET	Beta2AR agonist
NC(=O)C1(N2CCCCC2)CCN(c2nc(-c3ccccc3)cs2)CC1	1.9	1.3	0.7	1.4	0.74	-2%	9
Cc1ccc([C@@H]2[C@@H]3C(=O)N(C)C(=O)[C@@H]3[C@]3(C)C(=O)N(CC4CC4)CC(=O)N23)o1	1.0	-2.1	1.2	0.0	x	x	-3
O=C(CNC(=O)c1ccccc1Cl)N/N=C/C=C/c1ccccc1	x	5.9	0.4	-1.5	x	7%	0
COc1cc(NC(=O)c2ccccc2[N+](=O)[O-])ccc1NC(=O)C(C)C	2.0	-3.3	0.0	0.6	0.69	x	8
CCO/C=C1/C(=O)N(CC)c2ccccc21	1.4	1.5	0.7	2.1	0.65	13%	10
COc1cccc(Nc2ncccc2C(=O)NCc2ccccc2)c1	2.0	0.7	x	x	0.66	10%	-145
c1ccc(C(c2ccccc2)N2CCN(C(c3ccccn3)c3nnnn3C3CCCC3)CC2)cc1 (stereo not drawn)	-0.2	-3.0	0.8	-2.6	0.74	8%	-4
CC[N+](CC)(CC)C/C=C/CN1CCCCC1	-1.6	3.2	-0.1	6.9	0.65	1%	-5
CCC1(C2=CCCCC2)C(=O)NC(=O)N=C1N (stereo not drawn)	4.5	-2.4	x	x	0.72	-1%	-4
COc1cccc(/C=N/c2oc(-c3ccccc3)cc2C#N)c1O	x	4.4	-0.2	2.5	x	2%	1
O=C1/C(=C/c2cccs2)CCC1C1CCCC1 (stereo not drawn)	1.6	3.7	-3.9	-5.6	0.69	-5%	-9
O=C(CSc1nc2nn(-c3ccccc3)c(=O)c-2c2n1CCCCC2)Nc1ccc(F)cc1F	1.4	0.7	0.9	3.0	0.68	x	3
COC(=O)c1sccc1NC(=O)CSc1ccccc1N	-3.4	-0.1	-1.9	1.8	0.68	x	-4
Cc1cc(C(C)(C)C)ccc1NC(=O)CC(C)(C)CC(=O)O	4.0	3.4	0.7	-0.9	0.66	x	1
